liver stage: Plasmodium liver-stage growth inhibition, dose response, imaging, Malaria Box, P. yoelii, HepG2-A16-CD81EGFP (AID 602156); 5,700 tested, 4.8% active; calls after a first round at 10 µM; hits with a dose series show IC50 in µM; P. yoelii liver stage in HepG2-A16-CD81EGFP, imaging; first-round cut-off not given here; in the data active means a potency from the dose series;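 further: infected cells exposed to compound for 48 hours before fixation; stained parasite area by imaging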
Numbers without * were called inactive; i = inactive. The list is partial (hit frequency here may not be typical).

SMILES	liver stage
Cn1cnc(S(=O)(=O)Nc2ccccc2C(=O)NCC2CC2)c1	i
CC(=O)Nc1nc(C)c(-c2csc(Nc3ccc(C)cc3)n2)s1	1.9µM*
COc1ccc(CN(Cc2cc3cc(OC)c(OC)cc3[nH]c2=O)C(=S)NCCc2ccc(OC)c(OC)c2)cc1	i
CN(CCCNc1ccnc2cc(Cl)ccc12)C(=O)c1cc(C(F)(F)F)cc(C(F)(F)F)c1	i
COc1ccc(/C=C2\N=C(c3ccc(Cl)cc3)N(c3cc(Cl)ccc3C)C2=O)cc1OC	i
CC1=C(C(=O)OCCOc2ccccc2)C(c2cccc([N+](=O)[O-])c2)C2=C(CCCC2=O)N1 (centres undefined)	i
NC(=NCc1ccc(Cl)c(Cl)c1)NC(=O)c1nc(Cl)c(N)nc1N	i
COc1ccc([N+](=O)[O-])cc1-c1ccc(/C=C(\C#N)c2nn(CCO)c(N)c2C#N)o1	i
CCCCSc1oc(C)nc1[P+](c1ccccc1)(c1ccccc1)c1ccccc1	0.082µM*
O=C1C2C(C(=O)N1Cc1ccccc1)C1(c3ccccc3)C(=O)C2(c2ccccc2)C(c2ccccc2)=C1c1ccccc1 (centres undefined)	i
CC(=O)OCN1C(=O)N(COC(C)=O)C2C1N(COC(C)=O)C(=O)N2COC(C)=O (centres undefined)	i
CN(C)CCCNCc1cc(-c2cccnc2)ccc1O	i
COc1ccc2nc3cc(Cl)ccc3c(NCCCN(CCCN)CCCCN)c2c1	i
Cc1c[n+](Cc2ccccc2)ccc1/C=C/c1ccccc1	i
COc1cc(NC(C)CCCN(Cc2ccc(Cl)cc2)C(=O)c2ccc(Cl)cc2Cl)c2ncccc2c1 (centres undefined)	i
CCNC(=O)NCCSc1nc(-c2ccccc2)c(-c2ccccc2)n1CC	i
CCCCN(CC)C(=O)CSc1nc2ccccc2c(=O)n1Cc1ccco1	i
Cc1ccc2ncnc(Nc3cccc(C(F)(F)F)c3)c2c1	i
O=C(Cc1ccccc1)NCCCCNc1ccnc2cc(Cl)ccc12	i
CC(=O)Nc1cc([N+](=O)[O-])ccc1N1CCOCC1	i
Oc1ccc(-c2ccc(F)cc2)cc1CNC1CCCCC1	i
C(=NNc1nc2ccccc2[nH]1)c1ccc2c(c1)OCO2	i
COc1cccc(-c2ccc(O)c(CNCC3CC4C=CC3C43CC3)c2)n1 (centres undefined)	i
CCOP1(=O)COc2ccccc2OC1	i
NC(=O)c1ccc(-n2nnnc2SCc2ccc(Cl)cc2)cc1	i
CC[n+]1c(C=C2C=Cc3cc(C)ccc3N2C)sc(C)c1C	0.011µM*
O=C(C1CCN(c2nnnn2-c2ccccc2)CC1)N1CCc2ccccc2C1	i
Cc1ccc(C)n1-c1ccc(N(C)C)cc1	i
Cc1ccc(-c2nn(CC(=O)Nc3ccc(OC(F)(F)F)cc3)c(=O)c3ccccc23)cc1S(=O)(=O)N1CCCCC1	i
Cc1ccc(-c2c[n+]3c(n2-c2ccccc2)SCC3)cc1	1.1µM*
CCC1=NN2C(=N)/C(=C/c3cn(CCOc4ccccc4C(C)CC)c4ccccc34)C(=O)N=C2S1 (centres undefined)	i
OCCNc1nc(Nc2ccc(Br)cc2)nc2ccccc12	i
Cc1cccc(N=C2NC(=O)C(=Cc3ccc(N(C)C)cc3)S2)c1	i
CC(C)CN1CCN(c2nc(C#N)c3c(c2C(=S)NC2CCCCC2)CC(C)(C)OC3)CC1	i
COc1cc2c(cc1OC)-c1cc3ccc(OC)c(OC)c3c[n+]1CC2	i
COc1ccc2nc3cc(Cl)ccc3c(Nc3ccc(O)cc3)c2c1	i
COc1ccccc1NC(=O)c1n[nH]c(=O)c2ccccc12	i
C=CCSc1nc2sc3c(c2c(=O)n1-c1ccccc1)CCN(CCC)C3	i
CCCN(CCC)S(=O)(=O)c1ccc(C(=O)Nc2ccccc2C(=O)Oc2ccc3c(c2)c(C(=O)OCC)c(C)n3-c2ccccc2)cc1	i
Cc1ccc2c(c1)N(CC(=O)NC1CCCCC1C)C(=O)CO2 (centres undefined)	i
O=C(c1ccc(F)cc1Cl)N1CCN(c2nc(-c3cccs3)ns2)CC1	i
CCc1ccc(Nc2cc(C)nc3nc(C)nn23)cc1	i
COc1ccc(-c2cc(C(F)(F)F)n3ncc(C(=O)Nc4cc(C)ccc4O)c3n2)cc1OC	i
CN1C=C(c2ccc3ccccc3n2)C(c2c[nH]c3ccccc23)c2ccccc21 (centres undefined)	i
Cc1cc(-c2cnc(N3CCCC3)nc2C2CCN(Cc3cccnc3)CC2)on1	i
CCCn1c(SCCNC(=O)NCC)nc(-c2ccccc2)c1-c1ccccc1	i
COc1ccc(C(=O)Nc2ccc3nsnc3c2)cc1OC	i
CC1=C(/C=C/C(C)C=NNC(=O)c2ccncc2)C(C)(C)CCC1 (centres undefined)	i
CCN1/C(=C/c2ccc3ccccc3[n+]2CC)Sc2cc(NC(C)=O)ccc21	i
O=[N+]([O-])c1ccc(N2CCN(C(=S)Nc3ccccc3)CC2)cc1	i
Continuation.
SMILES	liver stage
Cc1ccc(CN2C(=O)C(O)(CC(=O)c3ccccc3)c3ccccc32)cc1 (centres undefined)	i
COc1ccccc1-n1nnnc1SCC(=O)Nc1cc([N+](=O)[O-])ccc1C	i
O=C(Nc1cc(C(F)(F)F)cc(C(F)(F)F)c1)Nc1ccc(Cl)c(Cl)c1	i
O=C(Nc1ccc(-c2cc(-c3ccccc3)nc(-c3ccc(NC(=O)c4cccc([N+](=O)[O-])c4)cc3)n2)cc1)c1cccc([N+](=O)[O-])c1	i
COc1ccc(Nc2ncnc3[nH]c(-c4cccc([N+](=O)[O-])c4)cc23)cc1	i
COc1ccc(OC)c(-c2ccc(O)c(CNC3CCCCC3)c2)c1	i
O=C(Nc1ccc(NC(=O)c2ccc(C3=NCCCN3)cc2)cc1)Nc1ccc(C2=NCCCN2)cc1	i
Cc1ccc(Cn2c(N3CCC(C(=O)NCc4ccc(F)cc4)CC3)nc3ccccc32)cc1	i
CCc1c(C)c(=N)c2ccccc2n1C	i
O=C(Nc1ccc(-c2nc3ccc(NC(=O)c4ccc(Br)o4)cc3[nH]2)cc1)c1ccc(Br)o1	0.81µM*
Cc1nc(C(C)N(C)Cc2c(C(=O)N3CCCCCCC3)nc3sccn23)c(C)s1 (centres undefined)	i
Cc1cccc(-c2cc3nc(C)c(C)c(=O)n3[nH]2)c1	1.1µM*
CSc1nc2nc(C)c(Cc3cccc(F)c3)c(C)n2n1	i
COC(=O)c1c(N)n(-c2ccccc2OC)c2nc3ccccc3nc12	i
Nc1ccc(N2CCCCCC2)cc1	1.9µM*
COc1cc(Nc2nccn3c(-c4ccsc4)cnc23)cc(OC)c1OC	i
CC(Cl)=CCc1c(C)[nH]c2c(ccc3ccccc32)c1=O	i
CC(C)N(CC(=O)Nc1cc(C(C)(C)C)nn1-c1ccc(Cl)c(Cl)c1)C(=O)c1ccc(C(C)(C)C)cc1	i
CC1(C)CC(N=c2cc(-c3ccccc3)oc3ccc(Cl)cc23)CC(C)(C)N1	i
CCN1C(=Cc2ccc3cc(OC)ccc3[n+]2CC)Sc2ccc(Cl)cc21	i
Cc1ccc(C)n1-c1ccc(C(=O)N2CCC(C)CC2)cc1	i
COc1ccc(-n2nc(C(=O)NCC(=O)NCCCN3CCOCC3)c3ccccc3c2=O)cc1Cl	i
COc1cc(OC)cc(-n2c(=O)c3sccc3n(CC(=O)c3ccc(F)cc3)c2=O)c1	i
OC(CCN1CCN(C(c2ccccc2)c2ccccc2)CC1)c1ccccc1 (centres undefined)	i
CC(C)CCN(CCC(C)C)CC(O)Cn1c2ccc(Cl)cc2c2cc(Cl)ccc21 (centres undefined)	i
CCC(=O)N1CCN(C(=O)c2ccc(C)cc2)C1	i
c1ccc2c(NCCc3cnc[nH]3)c3ccccc3nc2c1	0.71µM*
COc1ccc2sc(Nc3nc(-c4ccccn4)cs3)nc2c1	0.16µM*
O=C1c2ccccc2-c2nnc(-c3ccc(Br)cc3)cc21	i
Cc1ccn2c(NC(C)(C)CC(C)(C)C)c(-c3ccccc3OS(=O)(=O)CC34CCC(CC3=O)C4(C)C)nc2c1 (centres undefined)	i
CCNC(=O)C1CCN(c2cccc3c2C(=O)N(C2CCCCCCC2)C3=O)CC1	0.27µM*
COc1ccc2ccccc2c1C1N=C(SCc2ccc(F)cc2)NC(C)=C1C(C)=O (centres undefined)	i
OCCNc1nc(Nc2ccccc2O)nc2ccccc12	i
CCCCCN(C(=O)COCc1ccccc1)C(CC)c1nc2ccccc2c(=O)n1-c1cccc(Cl)c1 (centres undefined)	i
O=C1OC(c2ccccc2)=NC1=C(Cl)Cl	i
COc1ccc(NC(=O)c2cc3cc(C4(O)CCN(CC(C)(C)C)CC4)ccc3o2)cc1OC	i
CC(=O)C(N=Nc1cc(C(F)(F)F)cc(C(F)(F)F)c1)=C(C)O	i
CCOC(=O)C1=C(C)NC2=C(C(=O)CC(C)(C)C2)C1c1cc(I)sc1SC (centres undefined)	i
CN(C)c1cc(NC(=O)Nc2cccc(Cl)c2)c2ccccc2n1	i
Oc1cccc(Nc2nc(NCC3CCCO3)c3ccccc3n2)c1 (centres undefined)	1µM*
CCCNC(=O)c1cc(NC(=O)c2cc(C(F)(F)F)cc(C(F)(F)F)c2)ccc1N1CCCCC1	i
CCC(C)NC(=O)c1cc(NC(=O)/C=C/c2ccc([N+](=O)[O-])cc2)ccc1N1CCN(c2ccccc2OC)CC1 (centres undefined)	i
CCCCCCCCOC(=O)NCCCCCCNC(=O)OCCCCCCCC	i
O=C(COC(=O)c1c2c(nc3ccccc13)CCCCCCCCCC2)c1ccc(Cl)cc1	i
CCC(C)(C)c1ccc(Oc2ccc(NC(=O)c3ccc([N+](=O)[O-])o3)cc2)cc1	i
CCN1C(=CC(C)=Cc2sc3ccccc3[n+]2CCO)Sc2ccccc21	i
Oc1ccccc1Nc1nc(NC2CCCC2)c2ccccc2n1	i
CCOC(=O)CCCSc1nc(-c2cccs2)cc(C(F)(F)F)c1C#N	i
COc1ccc(C2C(C(=O)OC3CCCC3)=C(C)NC3=C2C(=O)CC(C)(C)C3)cc1Br (centres undefined)	i
O=C(CC1N=C2c3ccccc3N=C(SCc3cccc(F)c3)N2C1=O)NCc1cccs1 (centres undefined)	i
The listing continues.
SMILES	liver stage
CC[n+]1c(C=C2Sc3ccccc3N2C)ccc2cccc(C)c21	i
Cc1ccc(S(=O)(=O)Oc2ccc(C=NN=C(N)N)cc2)cc1	i
CNC(=O)[C@@H]1C[C@@H](NCc2ccc(OC)cc2)CN1Cc1ccccc1	i
COc1cccc(NC(=O)Cn2c(C)c(C(C)=O)c3ccccc32)c1	i
Cc1[nH]c2c(C)cccc2c(=O)c1CC=C(Cl)Cl	0.17µM*
CCn1c2cc(C)sc2c2cnn(CC(=O)Nc3c(C)nn(C)c3C)c(=O)c21	i
CCOC(=O)C1=C(N)OC2=C(C(=O)CC(c3ccccc3)C2)C1c1ccc(Cl)cc1Cl (centres undefined)	i
COc1ccc(S(=O)(=O)N2CCN(C(=S)NC3CCCCC3)CC2)cc1	i
Cc1nc2ccccn2c1C1(O)C(=O)Nc2c(Cl)cc(Cl)cc21 (centres undefined)	i
O=C(NC1CCN(CC(O)CN(Cc2ccccc2)S(=O)(=O)c2ccccc2)C1)c1ccco1 (centres undefined)	i
O=C(NNc1c2ccccc2nc2ccccc12)Nc1ccccc1	i
COc1cccc(-c2ccc(O)c(CN3CCCCC3)c2)n1	i
CCSC(Cl)=C(NC(=O)c1ccccc1)[P+](c1ccccc1)(c1ccccc1)c1ccccc1	i
Clc1ccc(-c2c[n+](Cc3ccccc3Cl)c3n2CCC3)cc1	i
C=CCOC(=O)C1=C(C)N2CCSC2=C(C#N)C1c1ccco1 (centres undefined)	i
COc1ccccc1Nc1nc(NCC2CCCO2)c2ccccc2n1 (centres undefined)	i
CCOC(=O)C1=C(C)N(c2ccc(OCC)cc2)C(=O)C1=Cc1ccc(C(C)C)cc1	i
COc1ccc(OC)c(C2CC(=O)C3=C(C2)NC(=O)CC3c2ccc([N+](=O)[O-])cc2)c1 (centres undefined)	i
COc1ccc(SC2CCN(C3CCOCC3)CC2)cc1	i
CCCCOc1ccc(/C=C(/C#N)c2nc(-c3ccc(-c4ccccc4)cc3)cs2)cc1	i
CN(CCCNc1ccnc2cc(Cl)ccc12)C(=O)c1cccc(Cl)c1	i
COc1cc(N)c(Cl)cc1C(=O)NCC1CCN(c2nc(C)cc(C)n2)CC1	i
Cc1ccccc1N1C(=O)C2C3c4ccccc4C(C(=O)O)(c4ccccc43)C2C1=O (centres undefined)	i

Entries shown so far containing fluorine:
SMILES	liver stage
CN(CCCNc1ccnc2cc(Cl)ccc12)C(=O)c1cc(C(F)(F)F)cc(C(F)(F)F)c1	i
Cc1ccc2ncnc(Nc3cccc(C(F)(F)F)c3)c2c1	i
Oc1ccc(-c2ccc(F)cc2)cc1CNC1CCCCC1	i
Cc1ccc(-c2nn(CC(=O)Nc3ccc(OC(F)(F)F)cc3)c(=O)c3ccccc23)cc1S(=O)(=O)N1CCCCC1	i
O=C(c1ccc(F)cc1Cl)N1CCN(c2nc(-c3cccs3)ns2)CC1	i
COc1ccc(-c2cc(C(F)(F)F)n3ncc(C(=O)Nc4cc(C)ccc4O)c3n2)cc1OC	i
O=C(Nc1cc(C(F)(F)F)cc(C(F)(F)F)c1)Nc1ccc(Cl)c(Cl)c1	i
Cc1ccc(Cn2c(N3CCC(C(=O)NCc4ccc(F)cc4)CC3)nc3ccccc32)cc1	i
CSc1nc2nc(C)c(Cc3cccc(F)c3)c(C)n2n1	i
COc1cc(OC)cc(-n2c(=O)c3sccc3n(CC(=O)c3ccc(F)cc3)c2=O)c1	i
COc1ccc2ccccc2c1C1N=C(SCc2ccc(F)cc2)NC(C)=C1C(C)=O (centres undefined)	i
CC(=O)C(N=Nc1cc(C(F)(F)F)cc(C(F)(F)F)c1)=C(C)O	i
CCCNC(=O)c1cc(NC(=O)c2cc(C(F)(F)F)cc(C(F)(F)F)c2)ccc1N1CCCCC1	i
CCOC(=O)CCCSc1nc(-c2cccs2)cc(C(F)(F)F)c1C#N	i
O=C(CC1N=C2c3ccccc3N=C(SCc3cccc(F)c3)N2C1=O)NCc1cccs1 (centres undefined)	i

Source: PubChem BioAssay (GNF / Scripps  Winzeler lab)
